Assay outcomes as filed in PubChem.
HSV augment: HSV replication enhancement; HSV replication augmentation in cells, fold increase; maximum fold increase; actives 0.005% (n = 220,000); AID 1956;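 active means peak rise of 1.5-fold or more in the series; tested in PC3 cells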;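 further: first round at 10 µM; read as green reporter fluorescence; hits show the peak of a series up to 25 µM; 1 = signal of infected wells without compound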
GALR2 agonist: agonists of human galanin receptor 2 (GALR2); actives 0.48% (n = 140,000); AID 803; O43603; GALR2-expressing cells, agonist activation read-out; activation, %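 (tested at 5 µM)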;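 active means above mean plus 3 SD of all compounds, about 5% in these data, not always enough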;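 further: 0% = vehicle buffer wells and 100% = reference agonist at full effect; tested in CHO reporter cells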
Target sequence (O43603 whole entry, looked up): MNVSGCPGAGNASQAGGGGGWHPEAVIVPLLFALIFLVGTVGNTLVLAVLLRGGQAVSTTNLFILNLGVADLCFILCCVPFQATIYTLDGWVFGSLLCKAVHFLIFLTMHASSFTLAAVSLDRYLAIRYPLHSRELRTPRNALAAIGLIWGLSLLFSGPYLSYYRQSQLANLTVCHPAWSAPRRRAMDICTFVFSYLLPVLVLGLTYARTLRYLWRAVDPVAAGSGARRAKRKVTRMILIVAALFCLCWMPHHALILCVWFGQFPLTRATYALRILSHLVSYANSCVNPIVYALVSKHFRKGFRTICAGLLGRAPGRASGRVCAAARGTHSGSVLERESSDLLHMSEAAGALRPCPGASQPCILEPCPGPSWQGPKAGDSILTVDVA
PKD1 inh: blocks activity of human protein kinase D1 | AID 797 | inhibition, %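 (about 10 µM by stock and volumes)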 | actives 0.056% (n = 200,000) | PKD1 kinase fluorescence polarization assay;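 active means inhibition of 50% or more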;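 further: controls were vehicle for no effect and a reference inhibitor for full effect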
RGS16-Gao HTS: modulates binding between human RGS16 and Galphao; actives 0.38% (n = 220,000); bead-based flow cytometry RGS16-Galphao binding, fluorescence; actives lie on both sides; AID 1441; binding response (% of control), % at 10 µM; O15492+P09471;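 active means below 25% or above 175%, edge rows of some plates excepted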;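 further: Galphao activated by GDP with aluminum fluoride before binding; 100% = wells without compound and 0% = beads without RGS; some results beyond the cut were filed as inactive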
Target sequence (O15492 whole entry, looked up): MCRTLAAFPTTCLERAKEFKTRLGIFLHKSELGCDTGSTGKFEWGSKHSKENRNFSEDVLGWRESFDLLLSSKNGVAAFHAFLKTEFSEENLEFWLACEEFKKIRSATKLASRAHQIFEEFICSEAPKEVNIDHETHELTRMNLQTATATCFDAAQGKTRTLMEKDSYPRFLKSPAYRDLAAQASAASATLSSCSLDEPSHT
Target sequence (P09471 whole entry, looked up): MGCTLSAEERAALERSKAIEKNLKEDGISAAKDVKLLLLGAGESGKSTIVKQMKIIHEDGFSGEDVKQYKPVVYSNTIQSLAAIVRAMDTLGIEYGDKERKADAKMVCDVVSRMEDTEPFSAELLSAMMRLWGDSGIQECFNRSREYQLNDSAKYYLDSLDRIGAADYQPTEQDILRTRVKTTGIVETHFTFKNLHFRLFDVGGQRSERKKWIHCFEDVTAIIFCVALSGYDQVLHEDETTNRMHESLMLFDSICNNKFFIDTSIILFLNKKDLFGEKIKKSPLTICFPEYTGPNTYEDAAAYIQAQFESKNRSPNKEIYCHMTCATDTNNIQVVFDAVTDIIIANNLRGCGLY
INS promoter inh: TRM-6 insulin promoter activity inhibition; TRM-6 cells (human fetal islet line), insulin promoter-eGFP reporter, imaging; reporter expression induced with tamoxifen; inhibition, % at 2 µM; actives 0.9% (n = 130,000); AID 1273;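 active means inhibition above the mean plus 3 SD, with well images judged a real hit on visual review, cut at about 60% in these data, passing the limit was not always enough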
INS promoter inh cell count: further read-out of INS promoter inh, marked with its call; normalized cell count, %; measured here: cell count, toxicity; reference of the scale not given here;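 cells exposed to compound for 48 h; stained nuclei by imaging scaled within each plate; lower means fewer cells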
HSV augment primary fold: recorded beside HSV augment, whose call it bears; fold increase; compound at 10 µM; measured here: primary screen fold increase 10 uM; tested in PC3 cells;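 GFP signal in the first replicate; 1 = infected wells without compound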
Numbers without * were called inactive; i = inactive; · = not tested or not shown; & = joins results of further samples. This is a random part of the collection (roughly 1.3% active in at least one column).

SMILES | HSV augment | HSV augment primary fold | GALR2 agonist | PKD1 inh | RGS16-Gao HTS | INS promoter inh | INS promoter inh cell count
O=C(NCc1ccco1)c1ccc(COCC(F)(F)F)cc1 | i | 1.2 | -2.6 | -4 | 104 | -68 | 137
O=C(NC(=S)NNS(=O)(=O)c1ccccc1)c1cccnc1 | i | 0.9 | · | 2 | 110 | · | ·
CC1CCCCN1S(=O)(=O)c1ccc(C(=O)Nc2nnc(-c3ccncc3)o2)cc1 (centres undefined) | i | 0.98 | · | -5 | 112 | 10 | 120
CN(C)c1ccc(P(=O)(Nc2ccccc2)N2CCOCC2)c(NC(=O)c2cccs2)c1 (centres undefined) | i | 0.91 | -0.2 | 0 | 100 | 27 | 135
CCOC(=O)N1CCN(S(=O)(=O)c2c(C)[nH]c(=O)[nH]c2=O)CC1 | · | · | -1.4 | 5 | 100 | 23 | 123
Nc1nnnn1/N=C/c1ccc(N2CCCCC2)c([N+](=O)[O-])c1 | i | 0.91 | -1.2 | 8 | 100 | -17 | 150
CCn1c(=O)cc(OCC(=O)Nc2ccccc2C#N)c2ccccc21 | i | 0.92 | -2.2 | -6 | 176 | · | ·
Cc1ccc(S(=O)(=O)N2CCCN(S(=O)(=O)c3ccc(C)cc3)CC2)cc1 | i | 0.93 | -0.5 | 8 | 109 | -20 | 75
CCOc1ccc(CN2CCNC(=O)C2CC(=O)NCCc2ccccn2)cc1 (centres undefined) | i | 1.3 | · | -2 | 96 | · | ·
CCn1cnc2sc(C(=O)N3CCN(c4ccc(OC)cc4)CC3)c(C)c2c1=O | i | 0.9 | -1.5 | -6 | 103 | · | ·

Profiles as entered above. Values in the order: HSV augment, HSV augment primary fold, GALR2 agonist, PKD1 inh, RGS16-Gao HTS, INS promoter inh, INS promoter inh cell count
Profile of `CCn1c(=O)cc(OCC(=O)Nc2ccccc2C#N)c2ccccc21` → i, 0.92, -2.2, -6, 176, ·, ·
Profile of `CCOc1ccc(CN2CCNC(=O)C2CC(=O)NCCc2ccccn2)cc1` (centres undefined) → i, 1.3, ·, -2, 96, ·, ·
Profile of `O=C(NC(=S)NNS(=O)(=O)c1ccccc1)c1cccnc1` → i, 0.9, ·, 2, 110, ·, ·

Remaining list, next part.
SMILES | HSV augment | HSV augment primary fold | GALR2 agonist | PKD1 inh | RGS16-Gao HTS | INS promoter inh | INS promoter inh cell count
CC(=O)/C=C(/C)NC(Cc1c[nH]c2ccccc12)C(=O)O (centres undefined) | i | 1&1.1 | -1.0&-3.7 | 8&-8 | 97&107 | -36&35 | 127&127
COc1ccc(OC)c(N2C(=O)CC(Cc3ccc(Cl)cc3)C2=O)c1 (centres undefined) | i | 0.91 | -1.2 | 6 | 95 | 23 | 104
CS(=O)(=O)N(CC(=O)NCCSc1ccc(Cl)cc1)c1ccc2c(c1)OCO2 | i | 0.91 | -0.6 | -5 | 98 | -24 | 73
COc1ccc(NC(=O)c2ccc(CNS(=O)(=O)c3cccc(OC)c3)cc2)cc1 | i | 0.8 | -2.3 | -4 | 105 | 12 | 63
CCOC(=O)c1c(-c2ccc(F)cc2)csc1NC(=O)CCN1C(=O)c2ccccc2C1=O | i | 1 | -1.8 | -4 | 95 | · | ·
O=C(N/N=C/c1ccc(N2CCOCC2)cc1)c1cccs1 | i | 1.2 | · | 0 | 99 | -10 | 105
CCCCC(CC)CNC(=O)c1ccc2c(c1)OCO2 (centres undefined) | i | 1.1 | -2.3 | -9 | 96 | -21 | 119
NNC(=O)c1nn(-c2ccccc2)cc1O | i | 0.73 | · | -9 | 102 | -21 | 82
Nc1nnnn1N=C1CCCCC1 | i | 0.98 | -2.0 | 7 | 105 | · | ·
CC(=O)N(C)c1ccc(NC(=O)c2ccc([N+](=O)[O-])cc2Cl)cc1 | i | 0.89 | -1.0 | -4 | 82 | · | ·
CC(Sc1nncs1)C(=O)Nc1ccc(Cl)cn1 (centres undefined) | i | 1 | 0.8 | 1 | 102 | · | ·
Cn1nc(C(=O)NCc2ccccn2)c2ccccc2c1=O | i | 0.9 | -1.8 | 3 | 117 | · | ·
O=[N+]([O-])c1cccc(Cl)c1N1CCOCC1 | i | 1 | -0.3 | -9 | 105 | 10 | 106
COc1ccccc1N(CN1CCCC1=O)C(=O)c1c(F)cccc1F | i | 0.76 | -2.1 | 7 | 95 | · | ·
CC(C)CCNC(=O)CCSCCC(=O)NCCC(C)C | i | 1 | 0.0 | -1 | 110 | 20 | 133
COc1ccc(OC)c(NC(=O)CCN2CCC(C)CC2)c1 | i | 0.9 | 0.3 | -8 | 115 | · | ·
Cc1cccc(C)c1NC(=S)N(Cc1cccnc1)Cc1ccccc1Cl | i | 0.97 | · | -1 | 106 | · | ·
CCCNC(=O)COC(=O)/C(C#N)=C/c1cc(C)n(CCC)c1C | i | 1.1 | · | -3 | 96 | · | ·
COc1ccc(-c2nnn(CC(=O)c3ccccc3)n2)cc1OC | i | 0.92 | -1.0 | -14 | 98 | -15 | 120
Cc1cc(C2=NNC(=NCCc3ccccc3)SC2)c(C)n1-c1c(C)n(C)n(-c2ccccc2)c1=O | i | 0.95 | · | · | 96 | · | ·
CSc1ccccc1C(=O)Nc1cccc(C(C)O)c1 (centres undefined) | i | 0.92 | -2.6 | -1 | 104 | 40 | 103
COc1cc(CCCN2C(N)=NC[C@@H]2Cc2ccc(O)cc2)cc(OC)c1OC | i | 0.72 | · | · | 100 | · | ·
CCOC(=O)C(=O)N=Nc1c(O)n(C)c2ccccc12 | i | 1 | · | -1 | 103 | · | ·
O=C(O)c1ccccc1-c1ccccc1C(=O)Nc1ccc(-c2nc3cc(Cl)ccc3o2)cc1 | i | 1 | · | · | 105 | · | ·
CCOC(CNC(=O)c1ccc2nc(N3CCC(C)CC3)sc2c1)OCC | i | 0.98 | -1.8 | -2 | 99 | -19 | 72
COc1ccc(C(=O)c2c[nH]c(C(=O)NCC3CCCO3)c2)cc1 (centres undefined) | i | 1.1 | -2.4 | -1 | 80 | -30 | 122
CCOCCCNC(=O)Cc1ccc(F)cc1 | i | 1 | -2.1 | 2 | 110 | 27 | 202
CCn1c(SCc2cc(=O)n3ccsc3n2)nc2ccccc21 | i | 1.1 | · | -5 | 100 | · | ·
COc1ccc(CNC(=O)CN(Cc2ccccc2)S(=O)(=O)c2ccc(Cl)cc2)cc1 | i | 0.99 | -0.7 | 13 | 98 | -27 | 133
CCN(C(=O)CSc1nnc(-c2c[nH]c3ccccc23)o1)C1CCS(=O)(=O)C1 (centres undefined) | i | 0.94 | · | -1 | 102 | 10 | 140
Cc1cc(-c2ccccc2)nc(N/N=C/c2cccnc2)n1 | i | 0.91 | · | -5 | 102 | · | ·
COc1ccc(CN2C(=O)C(=O)N(CC(N)=O)C2=O)cc1 | i | 0.99 | · | 2 | 101 | 27 | 69
O=C1C(C2=NC(c3ccccn3)C3C(=O)N(c4ccc(OC(F)(F)F)cc4)C(=O)C23)=C(O)c2ccccc21 (centres undefined) | i | 0.63 | · | · | 100 | · | ·
O=C(C1CC1)N1N=C(C2CCCCC2)CC1(O)C(F)(F)F (centres undefined) | i | 1 | · | 5 | 107 | · | ·
CNC(=O)c1ccsc1NC(=O)c1ccc(S(=O)(=O)N2CCc3ccccc32)cc1 | i | 0.76 | -0.7 | -4 | 84 | -17 | 93
Cc1cc(NC(=O)CSc2nnc(-c3cccs3)n2N)no1 | i | 0.95 | -0.9 | -1 | 97 | -42 | 113
CCn1c2ccccc2c2cc(NC(=O)c3ccco3)ccc21 | i | 0.8 | -1.1 | 4 | 102 | 25 | 120
CN(C)S(=O)(=O)c1cccc(NC(=O)CN2C(=O)NC(Cc3c[nH]c4ccccc34)C2=O)c1 (centres undefined) | i | 0.98 | · | -6 | 99 | · | ·
Cc1oc(S(=O)(=O)N(C)C)cc1C(=O)Nc1ccc(F)cc1 | i | 0.99 | · | · | 101 | · | ·
CCn1c(=O)c2cc(C(=O)N(C)c3cc(C)ccc3OC)sc2c2ccccc21 | i | 1.1 | · | · | 92 | · | ·
CC(CCn1cccn1)NC(=O)CCc1nnc(CCc2ccccc2)o1 (centres undefined) | i | 1 | · | -3 | 103 | · | ·
CC(C)c1ccc(NC(=O)C(c2ccccc2)N(Cc2ccco2)C(=O)CC2NC(=O)NC2=O)cc1 (centres undefined) | i | 0.87 | · | -1 | 101 | · | ·
COC(=O)c1sc(S(=O)(=O)NCCCN(C)C)c(C(=O)OC)c1C | i | 1.1 | · | 7 | 111 | 36 | 105
CC(C)(C)OC(=O)NCCCCCc1nnc(SCc2cccc(F)c2)o1 | i | 1.1 | · | · | 102 | · | ·
Nc1nc(SCC(=O)C23CC4CC(CC(C4)C2)C3)n[nH]1 | i | 0.97 | -1.4 | -4 | 103 | · | ·
O=C1CCCN1c1ncc(S(=O)(=O)c2ccc([N+](=O)[O-])cc2)s1 | i | 1 | · | -3 | 101 | · | ·
O=C(CN1CCCC1=O)NC1(C(F)(F)F)NC(=O)N(Cc2ccccc2)C1=O (centres undefined) | i | 0.96 | -0.2 | -1 | 103 | 51 | 96
COc1ccc(Br)cc1CN(C)CC(=O)Nc1ccccc1Cl | i | 1 | 2.0 | -5 | 101 | · | ·
COc1cccc(C2NC(=O)c3sc(=S)n(-c4ccccc4)c3N2)c1 (centres undefined) | i | 1.1 | -2.6 | -6 | 108 | 19 | 102
Cc1ccc(-n2nnnc2SCC(=O)N2CCc3ccccc3C2)c(C)c1 | i | 1.2 | -0.5 | -7 | 109 | 15 | 112
Remaining list, next part:
SMILES | HSV augment | HSV augment primary fold | GALR2 agonist | PKD1 inh | RGS16-Gao HTS | INS promoter inh | INS promoter inh cell count
CC(C)CCN=Cc1c(O)n(-c2ccccc2)c(=O)c2ccccc12 | i | 0.98 | -1.3 | 5 | 103 | 26 | 36
S=C1NC(C23CC4CC(CC(C4)C2)C3)=CC(c2ccc3c(c2)OCO3)N1 (centres undefined) | i | 1.2 | · | 5 | 100 | -82 | 78
CSCCC1C(C#N)=C(N)Oc2n[nH]c(-c3cccs3)c21 (centres undefined) | i | 1 | -2.7 | 11 | 100 | 14 | 48
CC(C(=O)c1c[nH]c(C(N)=O)c1)c1ncc(C(F)(F)F)cc1Cl (centres undefined) | i | 0.94 | · | -2 | 49 | 9 | 136
c1ccc2c(c1)Cc1cc(CN3CCOCC3)ccc1-2 | i | 0.99 | -2.1 | -5 | 105 | -75 | 115
Cc1ccccc1OCCCc1c(C)n[nH]c1C | i | 0.95 | · | 1 | 99 | · | ·
C=CCn1c(=O)c2ccccc2n2c(SCc3nc(N)nc(Nc4ccccc4C)n3)nnc12 | i | 0.74 | 0.9 | -14 | 78 | · | ·
Cc1cccc(C(=O)Nc2ccccc2-c2nnn(CC(=O)Nc3ccc4c(c3)OCCO4)n2)c1 | i | 0.97 | -1.2 | -4 | 100 | · | ·
CNC(=O)CN(C1CCCCC1)S(=O)(=O)c1ccc(OC)c(Cl)c1 | i | 0.96 | -0.9 | 4 | 106 | 11 | 108
COc1cc(/C=N/NC(=O)C(=O)NCc2ccco2)ccc1O | i | 0.95 | -1.2 | 14 | 120 | 26 | 98
C=C1CC(C(=O)N/N=C/c2ccccc2)C1 | i | 1 | -0.6 | 1 | 105 | · | ·
Cc1cc(C)c2c3c(sc2n1)C(=O)N(Cc1ccccc1)CC(=O)N3 | i | 0.88 | -1.3 | 4 | 103 | 31 | 98
O=C(CCCCn1c(=O)c2ccccc2n(CC(=O)Nc2ccc(F)cc2)c1=O)NCc1ccco1 | i | 0.98 | -1.8 | -2 | 99 | -25 | 116
O=C(Nc1ccc2c(c1)OCO2)C1Cc2ccccc2CN1S(=O)(=O)c1cccs1 (centres undefined) | i | 0.95 | -0.6 | -2 | 100 | · | ·
O=C(Cc1ccccc1)Nc1ccc(NC(=O)C2CC2)nc1 | i | 1 | -0.8 | 8 | 105 | · | ·
Cc1cc(C)c(/C=N/n2c(C)cc(C)c(C#N)c2=O)c(C)c1 | i | 0.92 | -0.5 | -8 | 49 | 25 | 107
O=c1cc(C(F)(F)C(F)F)oc2ccccc12 | i | 0.89 | 0.4 | -2 | · | -32 | 96
Cc1nn(C)c(C)c1S(=O)(=O)N(CC(=O)NCCN1CCOCC1)c1ccc(C(C)C)cc1 | i | 1 | -1.4 | -13 | 131 | · | ·
Cc1ccc(C(=O)COC(=O)c2cc(Cl)nc3ccccc23)cc1 | i | 0.55 | -2.2 | -2 | 103 | 20 | 100
Cc1ccc(CSCC(=O)N/N=C/c2cccc(OC3CSC3)c2)cc1 | i | 0.98 | -0.8 | -10 | 107 | -3 | 126

Compounds listed so far with a COOH group:
SMILES | HSV augment | HSV augment primary fold | GALR2 agonist | PKD1 inh | RGS16-Gao HTS | INS promoter inh | INS promoter inh cell count
CC(=O)/C=C(/C)NC(Cc1c[nH]c2ccccc12)C(=O)O (centres undefined) | i | 1&1.1 | -1.0&-3.7 | 8&-8 | 97&107 | -36&35 | 127&127
O=C(O)c1ccccc1-c1ccccc1C(=O)Nc1ccc(-c2nc3cc(Cl)ccc3o2)cc1 | i | 1 | · | · | 105 | · | ·
